Env fusion inh = inhibitors of HIV Env-mediated cell fusion; HeLa-JRFL Env/CEM21 cell fusion, luciferase; inhibition, % at 12.3 µM; 360,000 compounds, 1.1% hits; AID 651610;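 active = mean replicate inhibition score of at least 50 and every replicate individually at or above 50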;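 note: 0% = plate neutral controls and 100% = maraviroc near 300 nM; one replicate is shown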
* hit, by the source's call; & = joins results of further samples; [ ] = dose if it differs, or a comment.

SMILES	Env fusion inh
CN(C)CC(=O)Nc1ccc2c(c1)[C@H]1C[C@@H](CC(=O)N3CCc4ccccc4C3)O[C@@H](CO)[C@H]1O2	-13[16.7 µM]
CN(C)C(=O)C[C@@H]1CC[C@H](NC(=O)C2CCOCC2)[C@H](CO)O1	0[16.7 µM]
CC(C)c1cccc(NC(=O)C[C@H]2CC[C@H]3[C@@H](COc4ccc(NC(=O)c5ccc(C#N)cc5)cc4C(=O)N3C)O2)c1	5[16.7 µM]
C[C@@H]1CCCCO[C@H](CN(C)Cc2ccccc2)[C@H](C)CN([C@@H](C)CO)C(=O)c2cc(NC(=O)CCC(F)(F)F)ccc2O1	-10[16.7 µM]
CO[C@@H]1CN(C)C(=O)c2ccc(NS(=O)(=O)c3ccccc3C)cc2OC[C@@H](C)N(C)C[C@H]1C	-4[16.7 µM]
COc1ccc(C[C@@H]2CCn3cc(nn3)COC[C@H](C(C)C)NC2=O)cc1	28[16.7 µM]
O=C(C[C@@H]1CC[C@H](NC(=O)Nc2ccc(C(F)(F)F)cc2)[C@H](CO)O1)NCc1cc(F)cc(F)c1	45[16.7 µM]
C[C@@H]1CN([C@@H](C)CO)C(=O)c2cc(NS(=O)(=O)c3ccccc3)ccc2O[C@@H]1CN(C)S(=O)(=O)c1ccc(F)cc1	-20[16.7 µM]
COC(=O)C1=C(C)N(Cc2ccc(Br)cc2)C(=S)NC1c1ccc(F)cc1 (configuration not stated)	26
CNC[C@H]1Oc2ccc(NS(=O)(=O)c3ccccc3)cc2CC(=O)N([C@H](C)CO)C[C@H]1C	16[16.7 µM]
Cc1ccccc1-c1ccc2c(c1)[C@@H]1C[C@H]3[C@@H](CN1CC2)[C@H](C)OC(c1ccccc1)N3C (some centres not stated)	16
Cc1ccc(S(=O)(=O)Nc2ccc3c(c2)C(=O)N([C@H](C)CO)C[C@H](C)[C@H](CN(C)C(=O)Nc2ccc4c(c2)OCO4)O3)cc1	-4[16.7 µM]
CCCNC(=O)N1C[C@@H](O)COC[C@H]2O[C@H](CC(=O)N3CCC(Cc4ccccc4)CC3)CC[C@@H]21	24[16.7 µM]
CCS(=O)(=O)Nc1ccc2c(c1)C(=O)N(C)[C@@H]1CC[C@@H](CC(=O)NCc3ccccc3F)O[C@H]1CO2	7[16.7 µM]
COc1ccc(C(=O)Nc2ccc3c(c2)C(=O)N(C)[C@H]2CC[C@H](CC(=O)NCC4CC4)O[C@@H]2CO3)cc1	0[16.7 µM]

Quoted at random: 5 compounds from above.
SMILES	Env fusion inh
CO[C@@H]1CN(C)C(=O)c2ccc(NS(=O)(=O)c3ccccc3C)cc2OC[C@@H](C)N(C)C[C@H]1C	-4[16.7 µM]
COC(=O)C1=C(C)N(Cc2ccc(Br)cc2)C(=S)NC1c1ccc(F)cc1 (configuration not stated)	26
O=C(C[C@@H]1CC[C@H](NC(=O)Nc2ccc(C(F)(F)F)cc2)[C@H](CO)O1)NCc1cc(F)cc(F)c1	45[16.7 µM]
CCCNC(=O)N1C[C@@H](O)COC[C@H]2O[C@H](CC(=O)N3CCC(Cc4ccccc4)CC3)CC[C@@H]21	24[16.7 µM]
CN(C)C(=O)C[C@@H]1CC[C@H](NC(=O)C2CCOCC2)[C@H](CO)O1	0[16.7 µM]

Filtered by structure, those above with a CF3 group.
SMILES	Env fusion inh
C[C@@H]1CCCCO[C@H](CN(C)Cc2ccccc2)[C@H](C)CN([C@@H](C)CO)C(=O)c2cc(NC(=O)CCC(F)(F)F)ccc2O1	-10[16.7 µM]
O=C(C[C@@H]1CC[C@H](NC(=O)Nc2ccc(C(F)(F)F)cc2)[C@H](CO)O1)NCc1cc(F)cc(F)c1	45[16.7 µM]

More records
SMILES	Env fusion inh
O=C(C[C@@H]1C[C@H]2c3cc(NS(=O)(=O)c4ccc(F)cc4)ccc3O[C@H]2[C@H](CO)O1)NCc1ccc(Oc2ccccc2)cc1	-242[16.7 µM]
C[C@H]1CN([C@@H](C)CO)C(=O)c2cc(NC(=O)CCN3CCOCC3)ccc2O[C@H]1CN(C)Cc1ccc(C(F)(F)F)cc1	-7[16.7 µM]
CC(C)NC(=O)N(C)C[C@H]1OCCCC[C@H](C)Oc2ccc(NC(=O)c3ccccc3)cc2C(=O)N([C@H](C)CO)C[C@@H]1C	-54[16.7 µM]
CN(C)C(=O)C[C@H]1CC[C@H]2[C@H](COc3ccc(NC(=O)NCc4ccccc4)cc3C(=O)N2C)O1	3[16.7 µM]
Cc1noc(C)c1S(=O)(=O)N(C)C[C@H]1Oc2ccc(NC(=O)Nc3ccccc3)cc2CC(=O)N([C@@H](C)CO)C[C@H]1C	4[16.7 µM]
CN1C(=O)c2cc(NC(=O)c3cccc(F)c3)ccc2OC[C@@H]2O[C@@H](CC(=O)NCC3CCCCC3)CC[C@H]21	20&5[16.7 µM]
CCC(=O)N1C[C@H](O)COC[C@@H]2O[C@@H](CC(=O)NCc3cc(F)cc(F)c3)CC[C@H]21	-4[16.7 µM]
O=C(C[C@@H]1C=C[C@H](NC(=O)C2CC2)[C@@H](CO)O1)NC1CCC1	-5[16.7 µM]
CO[C@@H]1CN(C)C(=O)c2ccc(NC(=O)Nc3c(C)noc3C)cc2OC[C@H](C)N(CC2CC2)C[C@@H]1C	-10[16.7 µM]
CO[C@H]1CC[C@@H]2CCOc3ccc(C#N)cc3C(=O)N(C)C[C@H](OC)[C@@H](C)C(=O)N(C)C[C@H]1O2	1[16.7 µM]
O=C(C[C@H]1C[C@@H]2c3cc(NC(=O)c4cccnc4)ccc3O[C@@H]2[C@@H](CO)O1)NC1CCCCC1	2[16.7 µM]
CO[C@@H](CN(C)S(=O)(=O)c1ccc(F)cc1)[C@@H](C)CN(C(=O)Nc1ccccc1F)[C@H](C)CO	-27[16.7 µM]
C[C@H](CO)N1C[C@H](C)[C@H](CN(C)Cc2ccc(Cl)c(Cl)c2)OCc2cn(nn2)CCCC1=O	-3[16.7 µM]
O=C(C[C@@H]1CC[C@H]2[C@@H](COC[C@H](O)CN2C(=O)c2ccncc2)O1)NC1CCC1	-15[16.7 µM]
CCCN(C)C[C@@H]1Oc2cc(C3=CCCC3)ccc2S(=O)(=O)N([C@H](C)CO)C[C@@H]1C	-11[16.7 µM]
Cc1ccccc1NC(=O)N(C)[C@H]1C[C@H]2c3[nH]c4c(-c5ccccc5)cccc4c3CCN2C(=O)[C@H]1[C@H](C)O	-18
CCCC(=O)Nc1ccc2c(c1)C(=O)N(C)C[C@H](OC)[C@H](C)CN(Cc1nccs1)[C@@H](C)CO2	-12[16.7 µM]
CCCN1C[C@@H](C)[C@@H](OC)CN(C)C(=O)c2ccc(NC(=O)c3ccc(F)cc3)cc2OC[C@@H]1C	-12[16.7 µM]
COc1ccc(S(=O)(=O)Nc2ccc3c(c2)CC(=O)N([C@@H](C)CO)C[C@H](C)[C@H](CN(C)CC2CC2)O3)cc1	-2[16.7 µM]
Cc1noc(C)c1S(=O)(=O)Nc1ccc2c(c1)C(=O)N([C@@H](C)CO)C[C@H](C)[C@H](CN(C)C(=O)Nc1ccc(F)cc1)O2	-2[16.7 µM]
O=C(C[C@@H]1CC[C@H](NC(=O)Nc2ccc(C(F)(F)F)cc2)[C@@H](CO)O1)NCc1cc(F)cc(F)c1	-12[16.7 µM]
COC(=O)C1=C(C)N(Cc2ccccc2C(F)(F)F)C(=NCc2ccc(C(F)(F)F)cc2)NC1c1ccccc1 (configuration not stated)	-88
CCCNC(=O)C[C@@H]1CC[C@@H]2[C@H](COC[C@H](O)CN2Cc2ccccc2F)O1	-10[16.7 µM]
C[C@H]1CN(S(=O)(=O)C(C)(C)C)[C@@H](CCO)/C1=C\c1ccccc1	-34
O=C(C[C@@H]1C[C@H]2c3cc(NC(=O)NC4CCCC4)ccc3O[C@H]2[C@@H](CO)O1)NCc1ccccc1F	-39[16.7 µM]
C[C@@H]1CN([C@H](C)CO)C(=O)Cc2cc(N(C)C)ccc2O[C@@H]1CN(C)Cc1ccc2c(c1)OCO2	19[16.7 µM]
COC(=O)c1c(-c2ccc(OC)cc2)c2c(c3c4ccccc4n(S(=O)(=O)c4ccc(C)cc4)c13)C(=O)N(C)C2	9
O=C(N[C@@H](Cc1cccnc1)C(=O)N1CCC[C@H]1C(=O)NCCc1ccccc1Cl)c1ccco1	-30
C[C@H]1CN([C@@H](C)CO)C(=O)c2c(c3ccccc3n2C)-c2ccccc2CO[C@@H]1CN(C)S(=O)(=O)c1ccccc1F	17[16.7 µM]
COC(=O)[C@H]1[C@H](CO)[C@H]2Cn3c(ccc(-c4ccccc4OC)c3=O)[C@H]2N1C(=O)c1cnccn1	7[16.7 µM]
COC(=O)C[C@H]1CC[C@@H]2[C@@H](COc3ccc(NS(=O)(=O)c4ccc(F)cc4)cc3C(=O)N2C)O1	-13[16.7 µM]
COc1ccc(NC(=O)N(C)C[C@H]2Oc3c(NS(=O)(=O)c4ccccc4)cccc3C(=O)N([C@@H](C)CO)C[C@@H]2C)cc1	-8[16.7 µM]
C[C@H]1CN([C@@H](C)CO)C(=O)c2c(c3ccccc3n2C)-c2ccccc2CO[C@@H]1CN(C)S(=O)(=O)c1ccsc1	39[16.7 µM]
Cc1noc(C)c1S(=O)(=O)Nc1ccc2c(c1)C(=O)N([C@@H](C)CO)C[C@H](C)[C@@H](CN(C)S(=O)(=O)c1ccc(F)cc1)O2	-1[16.7 µM]
O=C(C[C@H]1C[C@@H]2c3cc(NC(=O)Nc4ccc(C(F)(F)F)cc4)ccc3O[C@@H]2[C@@H](CO)O1)NCc1cc(F)ccc1F	5[16.7 µM]
C[C@@H]1CN([C@@H](C)CO)C(=O)c2cc(NC(=O)C3CCCCC3)ccc2O[C@@H]1CN(C)C(=O)NC1CCCCC1	-29[16.7 µM]
COc1ccc2c3c(n(C)c2c1)[C@H](CO)N(C(=O)Cc1ccccc1)CC31CN(C(=O)Cc2ccccc2)C1	26[16.7 µM]
Nc1[nH]c(C(=O)c2ccccc2)c(-c2cccc(C(F)(F)F)c2)c1C(=O)c1c[nH]c2ccccc12	17
CO[C@H]1CN(C)C(=O)c2ccc(NC(=O)Nc3cc(Cl)cc(Cl)c3)cc2OC[C@@H](C)NC[C@@H]1C	16[16.7 µM]
C[C@H]1CN([C@@H](C)CO)C(=O)Cc2cc(NS(=O)(=O)c3ccc(F)cc3)ccc2O[C@@H]1CN(C)Cc1ccc(Cl)c(Cl)c1	-10[16.7 µM]
COc1ccc(C(=O)N2CCC[C@H]2C(=O)N2CCC[C@@H]2C(=O)NCc2ccccc2)cc1F	-12
COc1ccc(NC(=O)N(C)C[C@H]2Oc3c(NC(=O)c4cc(C)nn4C)cccc3C(=O)N([C@H](C)CO)C[C@H]2C)cc1	-7[16.7 µM]
CCCCNC(=O)C[C@H]1C[C@@]2(C(=O)OC)C(=C[C@H](C(C)C)O[C@@H]2C2CC2)N(Cc2ccccc2)C1=O	-19
Nc1[nH]c(C(=O)c2ccc(Br)cc2)c(-c2ccc3ccccc3c2)c1C(=O)NCCc1c[nH]c2ccccc12	29
Cc1ccc(S(=O)(=O)Nc2ccc3c(c2)CC(=O)N([C@@H](C)CO)C[C@@H](C)[C@@H](CN(C)Cc2ccc(C(=O)O)cc2)O3)cc1	18[16.7 µM]
CCCC(C)C(=O)NC1CCCCN(C)C1=O (configuration not stated)	15
CO[C@H]1CC[C@@H]2CCN(C)C(=O)[C@@H](C)N(C)C(=O)c3cccc(C#N)c3OC[C@H]1O2	-17[16.7 µM]
COc1ccc(-c2cccc3c4c([nH]c23)[C@@H]2C[C@H]3[C@@H](C(=O)N2CC4)[C@H](C)ON3C)cc1	12
Cc1cc(C)c(CN2CCN(C(=O)Cn3cc(C)c(=O)[nH]c3=O)CC2)c(C)c1	7
C[C@@H]1CN([C@@H](C)CO)C(=O)Cc2cc(NC(=O)Nc3cccc4ccccc34)ccc2O[C@H]1CN(C)Cc1ccc(-c2ccccc2)cc1	12[16.7 µM]
O=C(NCc1ccc(F)cc1)[C@H]1[C@H](CO)[C@H]2Cn3c(cccc3=O)[C@H]2N1CCC(F)(F)F	3[16.7 µM]
CN1CCN(C(=O)[C@H]2[C@H](CO)[C@H]3Cn4c(ccc(-c5cncnc5)c4=O)[C@H]3N2CC2CC2)CC1	-8[16.7 µM]
CO[C@H]1CN(C)C(=O)c2ccc(NC(=O)c3cccc(Oc4ccccc4)c3)cc2OC[C@@H](C)NC[C@H]1C	2[16.7 µM]
C[C@@H]1CN([C@@H](C)CO)C(=O)c2cc(NC(=O)Cn3cnnn3)ccc2O[C@@H]1CN(C)S(=O)(=O)c1ccc(Cl)cc1	-9[16.7 µM]
CC(=NNc1cc(C)c2cc(C)ccc2n1)c1ccccn1	-80
CN(C)C(=O)[C@@H]1[C@@H](CO)[C@@H]2Cn3c(cccc3=O)[C@@H]2N1C(=O)C1CCC1	-4[16.7 µM]
CCCN1CCCCC(NC(=O)c2c(F)cccc2F)C1=O (configuration not stated)	14
COC(=O)C1=C(C)N(Cc2ccccc2C(F)(F)F)C(=NCc2ccc3c(c2)OCO3)NC1c1cccc(F)c1 (configuration not stated)	-169
C[C@@H](NC(=O)C[C@H]1C[C@@H]2c3cc(NS(=O)(=O)c4ccc(F)cc4)ccc3O[C@@H]2[C@@H](CO)O1)c1ccccc1	13[16.7 µM]
CCCNC(=O)N1C[C@H](O)COC[C@@H]2O[C@@H](CC(=O)NCc3ccncn3)CC[C@H]21	12[16.7 µM]

Additional structures:
SMILES	Env fusion inh
COCCNC(=O)c1cc2c(c(-c3cccc(-c4cccc(F)c4)c3)n1)[C@@H](CCO)N([S@](=O)C(C)(C)C)C2	8[16.7 µM]
CO[C@@H]1CN(C)C(=O)c2ccc(NC(=O)NC(C)C)cc2OC[C@H](C)N(C)C[C@@H]1C	-9[16.7 µM]
Cc1noc(C)c1C(=O)N(C)C[C@@H]1OCc2ccccc2-c2c(n(C)c3ccccc23)C(=O)N([C@H](C)CO)C[C@@H]1C	48[16.7 µM]
CC(C)C[C@H]1COc2cc(NCc3ccc(Cl)c(Cl)c3)ccc2S(=O)(=O)N1	27

3 entries out of the list, ordered by heavy-atom count, high to low:
SMILES	Env fusion inh
CO[C@@H]1CN(C)C(=O)c2ccc(NC(=O)Nc3c(C)noc3C)cc2OC[C@H](C)N(CC2CC2)C[C@@H]1C	-10[16.7 µM]
CCCNC(=O)N1C[C@H](O)COC[C@@H]2O[C@@H](CC(=O)NCc3ccncn3)CC[C@H]21	12[16.7 µM]
CC(C)C[C@H]1COc2cc(NCc3ccc(Cl)c(Cl)c3)ccc2S(=O)(=O)N1	27

The list is partial; the hit share may differ from the screen's.
